# Assay outcomes as filed in PubChem BioAssay.
# RecA splice inh – inhibitors of M. tuberculosis RecA intein splicing; cell-free RecA intein splicing, fluorescence; inhibition, %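 (about 9 µM by stock and volumes)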; 0.75% of 290,000 active; in the data active = inhibition above about 30%; inconclusive = no clear call, values can overlap the other calls;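 also: 0% = vehicle wells and 100% = reference inhibitor control wells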
# Target sequence (P9WHJ3 whole entry, looked up, canonical isoform): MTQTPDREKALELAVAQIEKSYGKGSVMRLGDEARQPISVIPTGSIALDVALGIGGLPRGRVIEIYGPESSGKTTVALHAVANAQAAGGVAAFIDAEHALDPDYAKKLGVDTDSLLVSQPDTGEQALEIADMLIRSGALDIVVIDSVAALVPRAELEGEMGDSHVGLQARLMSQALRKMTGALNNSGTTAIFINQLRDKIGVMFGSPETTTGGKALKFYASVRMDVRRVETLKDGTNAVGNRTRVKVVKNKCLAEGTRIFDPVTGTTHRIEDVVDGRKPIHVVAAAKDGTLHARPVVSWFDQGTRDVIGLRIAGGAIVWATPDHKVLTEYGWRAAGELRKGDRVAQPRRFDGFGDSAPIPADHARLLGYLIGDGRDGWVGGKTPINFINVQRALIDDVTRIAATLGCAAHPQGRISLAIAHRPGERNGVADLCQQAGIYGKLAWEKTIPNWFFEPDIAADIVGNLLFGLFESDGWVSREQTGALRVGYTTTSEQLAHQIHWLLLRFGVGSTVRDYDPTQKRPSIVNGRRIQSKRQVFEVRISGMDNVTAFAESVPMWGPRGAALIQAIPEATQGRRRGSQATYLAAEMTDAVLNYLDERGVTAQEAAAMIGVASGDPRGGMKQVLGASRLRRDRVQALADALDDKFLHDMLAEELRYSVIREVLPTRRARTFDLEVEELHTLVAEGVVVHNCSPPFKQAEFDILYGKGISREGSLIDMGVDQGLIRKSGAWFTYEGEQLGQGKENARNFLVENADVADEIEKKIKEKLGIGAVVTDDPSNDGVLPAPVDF
# YopH inh – blocks Yersinia enterocolitica YopH tyrosine phosphatase; fluorescence Ex485/Em525; inhibition, %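 (about 10 µM by stock and volumes)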; 0.16% of 140,000 active; AID 898;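 active = inhibition of 50% or more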;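 also: controls were vehicle for no effect and minimum signal wells for full effect; inactives centre near -20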
# Arbovirus anti – arbovirus infection inhibition. AID 1251. arbovirus infection cell-based antiviral screen. 0.37% of 200,000 active. inhibition, % at 10 µM;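 active = inhibition from about 30%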;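 also: bluetongue infection of BSR cells; cell survival read as ATP light after 72 h; 0% = infected wells without compound and 100% = uninfected wells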
# Mtb betalactam – beta-lactam sensitization of Mtb H37Rv; M. tuberculosis H37Rv growth with meropenem, percent inhibition; hits of this screen are not shown here; inhibition, % at 25 µM; 0.27% of 330,000 active; AID 434955;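 active = about 74% or more and at least 40 points above the plate without the antibiotic, then above 30% in a dose series; inconclusive = first-round hits that could not be retested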;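 also: growth measured after seven days incubation then overnight dye step; 0% = bacteria only wells and 100% = bacteria with antibiotic; twin plates without the antibiotic show which effects depend on it; some results filed as inactive read as strong as hits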
# Mtb growth – M. tuberculosis H37Rv growth inhibitors, H37Rv strain (AID 1626) | M. tuberculosis H37Rv growth inhibition; higher % means a stronger effect | one-dose inhibition, % at 10 µM; IC50 in µM for titrated hits | 0.95% of 220,000 active;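 active = confirmed in a dose series; inconclusive = inhibition above 80% but not taken into the dose series; inactive = below 80% or under 30% at every dose of the series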;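 also: bacteria incubated seven days before Alamar blue readout; 0% = bacteria only wells and 100% = bacteria with antibiotic wells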
# Arbovirus anti repeat – also measured in Arbovirus anti; calls as there; inhibition, %; measured here: 10K subset replicate screen; many hits read low in the repeat;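 first of two repeat runs on a subset; 0% = infected and 100% = uninfected wells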
# The depositor's hits bear a star; ? = inconclusive; . = no result given. This is a subset, so the mix of outcomes need not match the whole.
SMILES,RecA splice inh,YopH inh,Arbovirus anti,Mtb betalactam,Mtb growth,others
O=C(c1ccc(Cl)c([N+](=O)[O-])c1)N(c1ccccn1)c1ccccn1,-2.2,-26,-2,2,-4%,
Cc1cnc(NC(=O)CSc2nnc3ncccn23)s1,-3.8,.,.,-2,.,
O=C(NC(=S)Nc1ccc(N2CCCCC2)c(Cl)c1)c1cccs1,4.3,7,.,99,?,
Cc1nc(N2CCOCC2)c2cc(-c3ccccc3)sc2n1,2.6,-37,3,84,5%,
COc1cc(C(=O)NCCNc2nc3cc(C)ccc3cc2C#N)cc(OC)c1OC,-22,.,.,-2,.,
CC(C)c1ccc(/C=C2\NC(=O)NC2=O)cc1,0.5,.,.,5,.,
Cc1nn(C)c(C(=O)N/N=C/c2cccnc2)c1Br,-1.0,.,.,0,.,
CCCCC(CC)CNCC(O)c1ccccc1 (centres undefined),0.0,.,21,-11,6%,
O=C(N/N=C/c1coc2ccccc2c1=O)c1ccccc1Br,0.7,-19,5,-3,9%,
C=CCSc1nnc2n(-c3ccccc3OC)c(=O)c3c4c(sc3n12)CCC4,3.7,-29,-20,-6,-7%,
O=C(NCc1ccccc1)NC1CCS(=O)(=O)C1 (centres undefined),-2.4,.,9,1,0%,
O=C(Nc1ccc(Cl)c(Cl)c1)N(CCCN1CCOCC1)Cc1cccnc1,1.0,.,.,-9,-5%,
Cc1ccc(CNC(=O)CSc2nc(=O)n3ccccc3n2)cc1,-0.6,.,.,-6,.,
Clc1ccc(CON/C=N/c2ncnc3sccc23)c(Cl)c1,3.0,-32,5,-9,7%,
Cc1ccc(Cl)cc1NC(=O)Nn1cnnc1,1.4,.,.,1,.,
CCOc1ccccc1C(=O)NCCCCNC(=O)c1ccccc1OCC,0.0,.,.,6,.,
CCc1cc(=O)oc2cc3oc(C)c(C)c3cc12,0.2,-31,1,7,2%,
COCCSc1nnc(NC(=O)CCS(=O)(=O)Cc2ccccc2)s1,0.5,.,.,-17,.,
N=c1n(CC(=O)c2ccc([N+](=O)[O-])cc2)c2ccccc2n1Cc1ccccc1,-1.8,16,-17,?,1%,
Cc1nc2ccccn2c1C(=O)N/N=C/c1ccc(CNC(=O)C(=O)Nc2ccccc2)o1,1.8,-26,-2,9,-7%,
O=C(OCC(=O)N(C1CCCCC1)C1CCCCC1)c1ccccc1O,3.8,.,.,2,.,
CN=C(Nc1cccnc1)c1cccc(C(F)(F)F)c1,-1.6,.,.,-4,.,
CCCCn1c(=N)n(CC(O)c2ccccc2)c2ccccc21 (centres undefined),-3.1,.,.,-4,17%,
CC(Oc1ccc(Cl)cc1)C(=O)Nc1ccccc1C(=O)N1CCOCC1 (centres undefined),1.2,.,.,6,.,
S=C(NCCc1ccccc1)N1CCn2cccc2C1c1ccncc1 (centres undefined),4.0,.,8,2,-11%,
FC(F)(F)c1ccc(CSc2nccn2-c2ccccc2)cc1,6.5,15,-7,5,11%,
O=C(O)C1CCN(C(=O)CSc2nc3ccccc3c(=O)n2-c2ccc(Cl)cc2)CC1,-2.1,.,.,4,.,
COC(=O)c1ccccc1NC(=O)CSc1nnc(C(CO)NC(=O)c2ccccc2Cl)n1C (centres undefined),0.8,-2,12,-1,-2%,
CN1CCN(C=NC2=NN(c3cccc(C(F)(F)F)c3)CC2)CC1,-4.4,-6,-8,92,2%,
O=C(CSc1ncccn1)N1CCN(Cc2ccccc2)CC1,-0.5,-24,4,-16,-7%,
O=C(CN1CCN(Cc2ccccc2)CC1)NC(=O)NCc1ccco1,-0.5,-32,1,2,1%,
CC(=O)c1c(C)cc(C)c(CSc2nnc(-c3ccco3)o2)c1C,4.4,22,5,18,7%,
Cc1ccc(C2CC(=O)C(C=NCCN3CCN(C(=S)Nc4ccc(F)cc4)CC3)=C(O)C2)cc1 (centres undefined),5.8,.,3,10,2%,
CN1CCN(CCC(=O)OC2CC3CCC(C2)N3C)CC1 (centres undefined),0.5,-25,-2,-11,-1%,
O=C(CCc1nc(-c2ccccc2F)no1)NCCN1CCOCC1,0.0,-33,1,0,1%,
O=C(CN1N=C(c2ccccc2)CCC1=O)NCCN1CCc2ccccc2C1,-0.5,-5,-4,9,4%,

# Compounds above with an aryl methoxy group (2):
SMILES,RecA splice inh,YopH inh,Arbovirus anti,Mtb betalactam,Mtb growth,others
COc1cc(C(=O)NCCNc2nc3cc(C)ccc3cc2C#N)cc(OC)c1OC,-22,.,.,-2,.,
C=CCSc1nnc2n(-c3ccccc3OC)c(=O)c3c4c(sc3n12)CCC4,3.7,-29,-20,-6,-7%,

# New compounds follow.
SMILES,RecA splice inh,YopH inh,Arbovirus anti,Mtb betalactam,Mtb growth,others
Cc1ccc2c(c1)N(CCC(=O)NCc1ccco1)C(=O)CO2,-2.6,-27,1,-8,-8%,
Oc1ccc(Nc2nc3ccccc3nc2Nc2ccc(O)cc2)cc1,-1.7,70*,-42,7,7%,
CN1CCCCC1c1ccc(-c2cccnc2)nc1 (centres undefined),1.0,.,3,-1,-11%,
COc1ccc(CNS(=O)(=O)c2csc(C(N)=O)c2)cc1OC,1.4,.,.,-2,.,
CCc1ccc(/C=C2\Oc3cc(OS(C)(=O)=O)ccc3C2=O)cc1,1.2,-27,-29,9,0%,
Cc1cc(C)n(Cc2ccc(C(=O)O)o2)n1,-3.4,-37,3,-4,-5%,
Cc1cc(C)n(Cc2ccc(C(=O)NCc3ccco3)o2)n1,-0.6,-16,3,-5,-6%,
O=C(NCCCN1CCCCC1)C1CC(=O)N(CCc2ccccc2)C1 (centres undefined),-1.0,.,.,-8,.,
C=CCc1c(C)nc(SC(C)C)[nH]c1=O,-2.6,15,-2,3,7%,
CCCS(=O)(=O)c1c(S(=O)(=O)CCC)c2ccc(C(N)=O)cn2c1C(=O)c1ccccc1,2.4,.,.,-4,.,
CCC(C(=O)OCn1nnc2ccccc2c1=O)c1ccccc1 (centres undefined),-4.6,.,1,16,5%,
CC(C)Cc1nnc(NC(=O)C2CCCC2)s1,-0.9,.,.,-6,.,
CCN(CC(=O)NCC1CCCO1)S(=O)(=O)c1ccc(Cl)cc1 (centres undefined),-1.4,.,.,-19,.,
COCCNC(=O)C(c1ccc(F)cc1)N(C(=O)CCC(=O)Nc1ccccn1)c1ccc(C)cc1 (centres undefined),-1.4,.,.,3,.,
Cc1ccc(-c2c[n+](CC(=O)c3cccs3)c3n2CCC3)cc1,-0.2,.,.,-3,18%,
Cc1ccc(P(=S)(c2ccc(C)o2)N2CCOCC2)o1,-1.0,-26,-2,-2,-2%,
O=P(O)(Oc1ccccc1)OC(c1ccccc1)C(F)(F)C(F)(F)F (centres undefined),0.9,.,10,-10,1%,
Cc1ccc(NC(=O)c2ccc(F)cc2)nc1,-2.0,.,-4,1,0%,
OC(COCc1ccc(Cl)cc1)CN1CC=C(c2ccccc2)CC1 (centres undefined),2.9,-4,-13,0,2%,
CCCCCc1ccc(-c2ccc(OC)cc2)nc1,9.9,.,-4,3,-2%,
COc1ccc(CCNC(=O)CSc2nc(C)cc(C)n2)cc1OC,-1.2,.,2,1,1%,
CCN(CC)C(=O)Cn1cc(C(=O)C(=O)N(C)C2CCN(C)CC2)c2ccccc21,-0.2,.,.,-12,.,
Cc1c(C(=O)Nc2ccc(F)cc2)nnn1-c1cccc(C(F)(F)F)c1,0.8,.,20,10,8%,
O=C(Nc1cc(C(F)(F)F)ccc1Cl)C(Sc1ccccn1)c1ccccc1 (centres undefined),-2.5,.,.,5,-12%,

# Filtered by structure, those above containing a CF3 group.
SMILES,RecA splice inh,YopH inh,Arbovirus anti,Mtb betalactam,Mtb growth,others
CN=C(Nc1cccnc1)c1cccc(C(F)(F)F)c1,-1.6,.,.,-4,.,
FC(F)(F)c1ccc(CSc2nccn2-c2ccccc2)cc1,6.5,15,-7,5,11%,
CN1CCN(C=NC2=NN(c3cccc(C(F)(F)F)c3)CC2)CC1,-4.4,-6,-8,92,2%,
O=P(O)(Oc1ccccc1)OC(c1ccccc1)C(F)(F)C(F)(F)F (centres undefined),0.9,.,10,-10,1%,
Cc1c(C(=O)Nc2ccc(F)cc2)nnn1-c1cccc(C(F)(F)F)c1,0.8,.,20,10,8%,
O=C(Nc1cc(C(F)(F)F)ccc1Cl)C(Sc1ccccn1)c1ccccc1 (centres undefined),-2.5,.,.,5,-12%,

# Additional compounds follow.
SMILES,RecA splice inh,YopH inh,Arbovirus anti,Mtb betalactam,Mtb growth,others
Cc1ccccc1-c1cc(C(=O)Nc2sc(C)c(C)c2C(N)=O)c2ccccc2n1,0.9,-25,-12,-4,47%,
Cc1ccc(Oc2cc(-n3nc(C)cc3C)ncn2)cc1,0.8,-2,-2,8,13%,
O=C(Cn1nnc(-c2cccs2)n1)NCc1cccs1,-1.2,.,8,-3,7%,
CCCOc1ccccc1NC(=O)c1c(-c2ccccc2)noc1C,13,-22,2,30,-2%,
O=C(Nc1ccccc1)C(O)C(O)C(=O)Nc1ccccc1 (centres undefined),-1.9,.,-3,-5,3%,Arbovirus anti repeat=4
O=C(CC1C(=O)NCCN1Cc1ccccc1)NC1CCCCCC1 (centres undefined),2.8,.,.,-1,.,
O=C(O)CN1C(=O)/C(=C\c2ccc(OC(=O)c3ccco3)cc2)SC1=S,30*,.,.,3,.,
CC(c1nnc(SCC(=O)Nc2cccnc2Cl)n1-c1ccccc1)N(C)C (centres undefined),-0.6,.,3,-5,-7%,
COc1cc(C(=O)NC(=S)NNC(=O)c2ccc3c(c2)OCO3)cc(OC)c1OC,1.1,.,.,12,.,
C=CCn1c(O)c(C(C)=NCCc2c[nH]c3ccccc23)c(=O)[nH]c1=O,-6.2,.,.,-10,1%,
C/C(O)=C(/N=O)C(=O)Nc1ccccc1,-0.6,4,12,5,0%,
c1ccc(CSC2=NCCCN2)cc1,-2.7,-5,-3,8,0%,
COc1ccc(N2CCN(C(=O)CCCn3c(=O)[nH]c4cc(Cl)ccc4c3=O)CC2)cc1,-3.0,-19,2,8,14%,
COc1ccccc1NC(=O)COc1cc(Br)c(CNCCCN2CCOCC2)cc1OC,0.2,.,-27,-9,1%,
O=[N+]([O-])c1ccc(CNc2ccc(F)cc2)s1,1.3,.,.,13,.,
O=S(=O)(Nc1ccccc1N1CCOCC1)c1ccc(Cl)s1,7.0,-40,8,1,-5%,
COc1ccccc1-c1nnc(NC(=O)c2ccc3ncsc3c2)o1,-0.7,-10,-8,94,4.2µM*,
Cc1nn(C)c(C)c1S(=O)(=O)N(CC(=O)NCCCN1CC(C)CC(C)C1)c1ccc(C(C)C)cc1 (centres undefined),-0.2,.,.,-5,.,
Brc1ccc2[nH]c3c(c2c1)CCC3,6.1,.,.,-9,-5%,
Cc1ccc2nc(SC(C)C(=O)N3CCCCC3)[nH]c2c1 (centres undefined),0.2,.,2,5,1%,
CCOC(=O)CC(=O)CSc1ncc(C(=O)OCC)c(N)n1,0.7,33,3,-5,-4%,
COc1ccc(C2c3[nH]c4ccccc4c3C[C@H]3C(=O)N(CCCO)CC(=O)N23)c(OC)c1 (some centres undefined),-0.4,.,.,?,.,
Clc1ccc(Nc2nc(N3CCOCC3)nc(N3CCOCC3)n2)cc1Cl,0.7,.,.,2,.,
O=C(NC(=O)N1CCCCC1)c1ccc(Cl)cc1,-0.4,.,.,-11,.,
Cn1ccnc1C(O)c1ccco1 (centres undefined),0.2,-8,-4,2,-16%,Arbovirus anti repeat=2
O=C(Nc1ccccc1Br)c1ccc2nccnc2c1,-2.2,.,.,-8,.,
N#C/C(=N/Nc1ccccc1F)C(=N)N1CCOCC1,5.2,-13,-1,1,-2%,
CS(=O)(=O)NCc1ccc(C(=O)NCc2ccccc2)cc1,-1.0,-20,4,17,-5%,
COC(=O)CN1CCN(C(=O)c2ccc(F)cc2)c2ccccc2C1,-4.0,7,3,5,-4%,
CCOC(=O)c1c(NC(=O)COc2ncnc3ccccc23)sc(C(C)=O)c1C,-3.0,-33,-6,-4,3%,
COc1ccccc1CC(=O)N1CCCC1,1.1,-15,0,3,4%,
COC(=O)c1nn(-c2cccc(C(F)(F)F)c2)ccc1=O,1.8,.,.,-9,.,
COc1ccc(CCNC(=O)Cn2nnc(-c3ccc(N(C)C)cc3)n2)cc1OC,-0.5,-27,-7,-8,-1%,
COC(=O)c1c(NC(=O)CN2CCN(Cc3ccc4c(c3)OCO4)CC2)sc(C)c1C,14,-35,-4,93,5%,
COc1ccc(OCc2nc3ccccc3n2C(C)C)cc1,7.3,.,-8,5,-4%,
COc1cccc(NC(=O)CN(C)C(=O)c2cc(S(=O)(=O)NCc3ccccc3)ccc2C)c1,-0.9,.,.,-2,.,
Cc1cc(NC(=O)C(C)C)ncc1NC(=O)Cc1ccccc1,.,-12,10,13,1%,
COCCNC(=O)CN(c1cc(Cl)ccc1OC)S(=O)(=O)c1ccc(C)c([N+](=O)[O-])c1,2.6,.,5,1,-5%,
CC(=O)C(=Nc1cccc(Cl)c1)NNc1ccccc1C,13,.,.,-1,.,
Cc1cc(N/N=C/c2ccc(O)cc2)c2cccc(C)c2n1,-16,.,.,97,.,
